LASV entry inh: Lassa virus entry inhibition; 1.2% of 300,000 active; Potency, µM (series often up to 37.9 µM), for inactives: at the highest dose activity change, negative = inhibition, most hits filed as inhibitors; Lassa virus pseudotype entry inhibition, cell reporter; control for the full effect not named in the record; active means well fitted inhibition curve with a large enough effect; inconclusive means small, poorly fitted or top-dose-only effect, or effect the other way; inactive means flat fitted curve, though single readings scatter; tested in HEK293 cells; further: on the % scale 0 is the no-effect control and ±100 the full control effect; nearly all actives have a fitted effect of over 50% in size; luciferase read-out
MARV entry inh: Marburg virus entry inhibition | 1.8% of 300,000 active | Marburg virus pseudotyped entry inhibition, cell reporter; control for the full effect not named in the record; about a third of the inactives were read at about 46 µM | Potency, µM (highest dose often 37.8 µM), inactives show at the top dose activity change, negative = inhibition, actives largely listed as inhibitors | AID 540276; active = well fitted inhibition curve with a large enough effect; inconclusive = small, poorly fitted or top-dose-only effect, or effect the other way; inactive = flat fitted curve, though single readings scatter; tested in HEK293 cells; about a fifth of its hits are not listed in these tables; further: on the % scale 0 is the no-effect control and ±100 the full control effect; luciferase read-out
SARS PLP yeast: SARS-CoV PLP inhibition in yeast; AID 485353; Potency, µM (highest dose often 32.9 µM), for inactives: at the top dose activity, positive = growth rescue; S. cerevisiae expressing SARS-CoV PLpro, growth rescue; control for the full effect not named in the record; 0.19% of 330,000 active; active means well fitted rising curve with a large enough effect; inconclusive means small, poorly fitted or top-dose-only effect; inactive means no such curve, though single readings can be large or run the other way; further: 0% is about no effect; nearly all actives have a fitted effect of over 55% in size; growth read by luminescence after 48 h
RE007 growth inh: less growth of the S. pombe RE007 Vpr strain | Potency, µM (doses to about 92.2 µM), for inactives: at the top dose activity change, negative = less growth | S. pombe RE007 Vpr strain, BacTiter-Glo ATP luminescence, 24 h; control for the full effect not named in the record | 0.21% of 360,000 active; active = well fitted falling curve with a large enough effect; inconclusive = small, poorly fitted or top-dose-only effect; inactive = no such curve, though single readings can be large or run the other way;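 further: on the % scale 0 is the no-effect control and ±100 the full control effect; nearly all actives have a fitted effect of over 50% in size; the assay follows cell death caused by Vpr and the record does not say whether a fall means rescue or toxicity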
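Fission yeast RE007 carrying one integrated HIV-1 vpr copy, seeded at OD 0.01 in PMG+AL medium with 23 nL pinned compound. Grown 24 h at 30 degrees; viability read by BacTiter-Glo luminescence after 5 min.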
NS1 inh: inhibitors of influenza NS1 protein function; S. cerevisiae slowed by influenza A NS1, growth recovery by OD600; Potency, µM (doses to about 46.1 µM), inactives show at the top dose activity, positive = more growth; 0.4% of 270,000 active; AID 2326; active means well fitted rising curve with a large enough effect; inconclusive means small, poorly fitted or top-dose-only effect; inactive means no such curve, though single readings can be large or run the other way; further: nearly all actives have a fitted effect of over 50% in size
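Recovery from NS1-induced slow growth read by OD600 in budding yeast switched to galactose assay medium (pH 6.0, -URA) at 1:100 dilution. Compound 23 nl per well; the matching strain lacking NS1 serves as control.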
StopGo reporter: lowers the luciferase signal of an FMDV 2A StopGo reporter; human cells with a luciferase reporter of 2A StopGo recoding; control for the full effect not named in the record; Potency, µM (highest dose often 57.9 µM), inactives show at the top dose signal change, negative = less light; 1.2% of 410,000 active; active = well fitted falling curve with a large enough effect; inconclusive = small, poorly fitted or top-dose-only effect; inactive = no such curve, though single readings can be large or run the other way; tested in HEK293T cells; further: on the % scale 0 is the no-effect control and ±100 the full control effect; nearly all actives have a fitted effect of over 45% in size; luciferase light after 4 h
Cruzain inh Det: inhibitors of Trypanosoma cruzi cruzain with detergent; purified cruzain, Z-FR-AMC fluorescence, 0.01% Triton; AID 1478; 0.43% of 200,000 active; Potency, µM, inactives show max response, negative = inhibition, actives largely listed as inhibitors; P25779;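 further: plate controls were neutral wells for no effect and buffer without enzyme for full effect; nearly all actives have a fitted effect of over 40% in size; top concentration of the series not given in the record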
Target sequence (P25779 123-467 limits assumed): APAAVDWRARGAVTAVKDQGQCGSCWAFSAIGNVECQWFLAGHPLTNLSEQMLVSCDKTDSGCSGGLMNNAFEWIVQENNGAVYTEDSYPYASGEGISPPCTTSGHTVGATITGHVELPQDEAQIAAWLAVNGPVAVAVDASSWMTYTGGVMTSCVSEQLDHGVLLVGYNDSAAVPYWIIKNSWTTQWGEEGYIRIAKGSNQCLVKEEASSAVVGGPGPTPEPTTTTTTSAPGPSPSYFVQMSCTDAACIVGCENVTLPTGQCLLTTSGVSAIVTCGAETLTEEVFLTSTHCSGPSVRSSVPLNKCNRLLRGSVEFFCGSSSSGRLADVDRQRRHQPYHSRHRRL
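Detergent-containing run (0.01% Triton X-100) in acetate buffer pH 5.5 with 5 mM DTT: enzyme at 1.5 nM final, 15 min compound preincubation at room temperature, then 2 uM Z-FR-AMC substrate. Activity taken as 60 s fluorescence increase at 360/450 nm.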
Cruzain noTriton: cruzain (T. cruzi) inhibition without detergent; Potency, µM, for the others: max response, negative = inhibition, most hits filed as inhibitors; 2.3% of 200,000 active; AID 1476; P25779; purified cruzain, Z-FR-AMC fluorescence, no detergent;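 further: plate controls were enzyme without inhibitor for no effect and buffer without enzyme for full effect; nearly all actives have a fitted effect of over 40% in size; top concentration of the series not given in the record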
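Purified cruzain at 1.5 nM, pre-incubated 15 min with compound at room temperature in 100 mM sodium acetate pH 5.5, 5 mM DTT, 0.00005% Triton X-100. Reaction started with 2 uM Z-FR-AMC; AMC fluorescence increase over 60 s gives rate.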
An asterisk follows results filed as active; ? = inconclusive; . = not tested or not shown; & = joins results of further samples; [ ] = remark or other dose. Unless noted, the call rests on the fitted dose curve; in most records, active means well fitted curve in the direction sought with a large enough effect; inconclusive means small, poorly fitted or top-dose-only effect, or another doubt; inactive means no such curve, though single readings can be large; an effect the other way counts as inactive or inconclusive. Potency means the concentration at half of the fitted maximal effect.

SMILES	LASV entry inh	MARV entry inh	SARS PLP yeast	RE007 growth inh	NS1 inh	StopGo reporter	Cruzain inh Det	Cruzain noTriton
COc1ccc(Cn2cc(C(=O)c3ccc(F)cc3)c(=O)c3cc4c(cc32)OCCO4)cc1	-7%[46.1 µM]	?	.	.	.	0%	-4.9%	5%
Cn1c(=O)oc2cc(S(=O)(=O)NCCC(=O)NCCc3ccc(Cl)cc3)ccc21	-21%	1%	4%	6%	-8%	-3%	-4.4%	-11%
Cc1ccc(CN(Cc2ccco2)C(=S)Nc2ccccc2C)cc1	?	?	-5%	-3%	-4%	-9%	.	.
COc1ccc(/C=C2\SC(=S)N(CCC(=O)Nc3ccc(C(=O)O)cc3)C2=O)cc1OC	?	-1%	3%	11%	3%	22%	.	.
CCc1ccccc1NC(=O)c1noc(C(C)C)c1[N+](=O)[O-]	?	-9%[46.1 µM]	-4%	13%	.	-16%	.	.
COc1cc(NC(=O)c2cc3c(=O)n(Cc4ccco4)ccc3nc2C)cc(OC)c1OC	4%[46.1 µM]	.	.	.	.	-11%	-3.2%	21%
COc1ccccc1OCCSc1nc2ccccc2c(=O)[nH]1	15%	6%	0%	2%	?	.	-1.1%	-15%
Cc1cccc(Nc2nnc(-c3ccc(C)c(S(=O)(=O)N4CCN(C)CC4)c3)c3ccccc23)c1	?	?	.	.	.	-9%	-11%	-12%
Oc1ccc(-c2cnns2)c(O)c1	11µM*	?	-13%	16%	11%	-19%	-3.5%	-4%
CCc1cccc(NC(=O)Cn2c(=O)n(Cc3ccccc3)c(=O)c3c2c2cc(OC)ccc2n3C)c1	16%[46.1 µM]	.	.	.	.	-4%	0.3%	-5%
CCOC(=O)c1c(C)[nH]c(C)c1S(=O)(=O)N1CCCC(C(=O)N2CCN(c3ccccc3)CC2)C1 (stereo not given)	1%[46.1 µM]	.	.	.	.	-16%	1.9%	-6%
CC(=O)c1ccc(OCC(=O)NC2CCCN(Cc3ccccc3F)C2)cc1 (stereo not given)	.	.	-9%	-5%	5%	-20%	.	.
COc1ccc(C(=O)NCC(c2cccnc2)N2CCc3ccccc3C2)cc1 (stereo not given)	0%[46.1 µM]	.	.	.	.	-22%	-0.7%	-8%
CCN(CC)C(=O)CN(c1ccc(C)cc1)S(=O)(=O)c1ccc(SC)cc1	?	3%	-6%	-11%	-1%	45%[activator]	0.0%	1%
CCOC(=O)CNc1nc(C#N)nc(N2CCOCC2)n1	5%	?	8%	13%	-11%	?	2.2µM*	2µM*
O=C(CN1CCc2ccccc21)NC(=O)NCc1ccccc1	-11%	2%[46.1 µM]	2%	5%	.	12%	.	.
CCn1ccc2cc(S(=O)(=O)N3CCC(C(=O)NCc4ccc(OC)cc4)CC3)ccc21	-5%[46.1 µM]	.	.	.	.	-3%	-2.6%	4%
Cc1ccccc1Nc1cc2ccccc2c(=O)[nH]1	14%	-19%&-19%[46.1 µM]	-30%	-23%	-35%	-12%	-15%	-6%
COc1ccc(NC(=O)c2cn(CCC#N)nc2-c2cccc([N+](=O)[O-])c2)cc1	-28%	?	0%	12%	-6%	-5%	.	.
CCC(=O)c1c(NC(C)C)cc(C)oc1=O	-28%	4%[46.1 µM]	-3%	-14%	.	-7%	.	.
COc1cccc(CCC2C(=O)CCCC2=O)c1	-7%	0%	.	-22%	.	10%	.	.
CCc1sc(C(=O)Nc2ccsc2C(=O)OC)cc1Br	8%	3%	0%	-2%	-27%	12%	-7.1%	-23%
Cc1ccc2nc(C)c(C(=O)N/N=C/c3ccc(C(=O)O)cc3)cc2c1	3%[46.1 µM]	-3%	0%	-1%	-4%	-6%	.	.
CCOc1ccccc1N(CC)C(=O)Cn1ncc2c1-c1ccccc1OC2	.	-14%[46.1 µM]	.	.	.	-22%	-6.0%	18%
COc1ccc(/C=C2\SC(=O)N(CCC(=O)NCCCn3ccnc3)C2=O)cc1	.	.	1%	-2%	0%	35%[activator]	.	.

Carrying on:
SMILES	LASV entry inh	MARV entry inh	SARS PLP yeast	RE007 growth inh	NS1 inh	StopGo reporter	Cruzain inh Det	Cruzain noTriton
CCC(C)NC(=O)CCc1c(C)nc2nc(-c3cc(OC)cc(OC)c3)nn2c1C (stereo not given)	19%[46.1 µM]	16%[46.1 µM]	9%	-2%	3%	-25%&-5%	0.7%&7.1%	?
Cc1cnc([N+](=O)[O-])n1CCOC(=O)NC(=O)c1ccc(C(F)(F)F)cc1	-1%	-1%[46.1 µM]	10%	-3%	.	-9%	.	.
O=C(NS(=O)(=O)Oc1ccc(F)cc1F)OC[C@@H]1CCCN2CCCCC12 (stereo not given in full)	3%[46.1 µM]	-2%[46.1 µM]	0%	-1%	-16%	10%	.	.
O=C1CCC(/C=C/c2ccccc2)=NN1Cc1ccc(Cl)c(Cl)c1	-4%	?	-28%	11%	-1%	-10%	-9.0%	3%
COc1cc(OC)c(C2=NOC(C(=O)NCCc3ccccc3)C2)cc1Cl (stereo not given)	1%	4%	-15%	11%	-5%	20%	-3.7%	7%
COc1cccc(NC(=S)N2CCCC2)c1	?	?	16%	-5%	5%	9%	-4.4%	5%
CCn1nc(NC(=O)c2ccco2)c2cc3cc(C)ccc3nc21	-30%	?	-4%	-1%	-2%	-18%	.	.
COc1ccc(S(=O)(=O)NCc2ccccn2)cc1OC	?	12%	2%	-10%	6%	44%[activator]	.	.
CC1CCN(S(=O)(=O)c2ccc(C(=O)Nc3nc4ccc(F)cc4s3)cc2)CC1	-7%[46.1 µM]	.	.	.	.	-17%	2.7%	4%
O=C(Nc1ccn(Cc2c(F)c(F)cc(F)c2F)n1)c1cccc(Cn2cc([N+](=O)[O-])cn2)c1	-20%	?	7%	0%	11%	-21%	0.9%	4%
COc1ccc(CCNC(=O)c2ccc3c(c2)ncn3-c2ccc(C)cc2C)cc1OC	?	.	.	.	.	-14%	-0.2%	?
C=CCN(C(=O)CNC(=O)c1ccco1)C(C(=O)NC1CCCCC1)c1ccccc1F (stereo not given)	0%	0%&-6%	1%	4%	-12%	-13%	1.5%	-9%
CCOc1ccc2c(c1)c(=O)c(C(=O)c1ccc(CC)cc1)cn2CC(=O)Nc1ccccc1C	-12%[46.1 µM]	0%[46.1 µM]	.	.	.	-5%	-0.7%	-5%
CCOc1cc(C2Nc3ccccc3C(=O)N2c2ccccc2)c(Br)cc1OCC(=O)O (stereo not given)	12%	16%	-2%	.	24%	-10%	-3.2%	18%
O=C(NC1CCCC1)C(c1ccncc1)N(C(=O)Cc1cccs1)c1ccccc1 (stereo not given)	-5%	-27%[46.1 µM]	-1%	9%	-1%	-11%	.	.
CCn1cc(C(=O)OCC(=O)c2cc(C)n(-c3ccc(OC(F)F)cc3)c2C)c(=O)c2ccc(C)nc21	13%	3%	-23%	.	13%	?	-4.7%	-8%
COc1ccc(CC(=O)OCC(=O)N2CCN(S(=O)(=O)c3ccc(C)cc3C)CC2)cc1OC	0%	-16%	-8%	-27%	.	?	.	.
O=C(COC(=O)C1COc2ccccc2O1)NC(=O)Nc1ccc2c(c1)OCCO2 (stereo not given)	17%	?	-2%	5%	-12%	12%	-5.3%	0%
COc1ccc(CNC(=O)C(c2ccncc2)N(C(=O)Cc2cccs2)c2cccc(C)c2)cc1 (stereo not given)	?	?	8%	-10%	10%	.	0.0%	-1%
CCc1cccc(NC(=O)CCN2C(=O)c3ccccc3Sc3ncccc32)c1	4%[46.1 µM]	.	.	.	.	-13%	-2.4%	0%
O=S(=O)(Cc1ccccc1)c1ccccc1-c1nnc(-c2ccccc2)o1	-13%	-5%	2%	0%	7%	-21%	6.7%	-7%
CCN(CC)c1ncnc2scc(C3COc4ccccc4O3)c12 (stereo not given)	?	-26%[46.1 µM]	-63%	1%	-29%	?	-3.9%	-1%
CCCCN(C(=O)NC(=O)Nc1ccccc1C)S(C)(=O)=O	-23%	.	1%	7%	2%	19%	7.7%	-6%
CN(C)c1ccc(/C=C/c2cc[n+]([O-])cc2)cc1	.	-7%	7%	.	-7%	.	-3.7%	-9%
COc1cc(/C=N/NC(=O)c2c(-c3ccccc3)noc2C)cc(OC)c1OC	-3%	?	10%	1%	19%	-4%	-1.2%	8%

Other structures follow.
SMILES	LASV entry inh	MARV entry inh	SARS PLP yeast	RE007 growth inh	NS1 inh	StopGo reporter	Cruzain inh Det	Cruzain noTriton
Cc1ccc2cc(C)c(SCC(=O)Nc3cc(C)on3)nc2c1	?	3%[46.1 µM]	0%	-18%	-1%	3%	.	.
CCCCOc1ccccc1Cn1c(=O)oc2ccccc21	1%	-16%	13%	9%	-3%	-5%	-6.8%	-9%
CCOc1cc2c(cc1OCC)C(C(=O)O)C(c1cc(OC)c(OC)c(OC)c1)N(C)C2=O (stereo not given)	-19%	7%	0%	-2%	-7%	3%	0.3%	7%
Cc1cc(C)n(-c2ncnc3sc(C)c(C)c23)n1	-2%	6%	4%	-21%	9%	11%	4.1%	-22%
COc1ccc(NC(=O)Cn2nc(C)c([N+](=O)[O-])c2C)cn1	-5%	-2%[46.1 µM]	2%	7%	.	1%	.	.
COc1ccc(NC(=O)CC2C(=O)N(c3ccc(F)cc3)C(=O)N2Cc2ccco2)cc1 (stereo not given)	-5%[46.1 µM]	.	.	.	.	16%	-2.5%	-6%
COc1ccccc1N(C(=O)CNC(=O)c1ccco1)C(C(=O)NC1CCCC1)c1ccncc1 (stereo not given)	13%	-17%	7%	4%	2%	8%	-4.2%	-9%
Cc1ccc(-c2nc3c(=O)n(C)c4ccccc4c3o2)cc1	18%	2%	-21%	?	-12%	31%[activator]	2.0%	-23%
Cn1nc(-c2ccccc2)c(-c2ccccc2)c(C(=O)Nc2ccccc2C(N)=O)c1=O	16%[46.1 µM]	-2%[46.1 µM]	.	.	.	-7%	-2.1%	28%
Cc1cc(C)c(NC(=O)CS(=O)CC(=O)N2CCN(c3ccc(F)cc3)CC2)c(C)c1 (stereo not given)	15%	-8%	-12%	-5%	1%	?	2.2%	?
CC(C)N1CCc2nc(SCC(=O)Nc3cccc(F)c3)[nH]c(=O)c2C1	-4%[46.1 µM]	-1%[46.1 µM]	.	.	.	-8%	-2.5%	-8%
COc1ccccc1NC(=O)Nc1ncccc1C	?	-3%	-12%	-21%	-74%	30%[activator]	3.8%	-13%

Screening results deposited in PubChem BioAssay by National Center for Advancing Translational Sciences (NCATS).
